rRNA inh HTS – reduced GFP signal of wild-type E. coli, primary screen, bacterial rRNA inhibitor project, GFP/RFP fluorescence, OD600, single point; E. coli WT GFP vs humanized-ribosome RFP mutants, 24 h; stronger effect = lower value; DMSO median 0, no signal -100; GFP signal change (wild-type ribosome), % (no concentration beside the values); 1.6% of 350,000 active;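 active = significant combined selectivity score with lowered wild-type GFP, culture density cut under 30%, mutant RFP and density less affected; inactive = any of these conditions unmet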; also: one replicate is shown; some compounds called inactive have numbers as strong as hits
AF4-AF9 inh – inhibitors of AF4 peptide binding to AF9, primary screen, biochemical, AlphaScreen, biotin-AF4 peptide, FLAG-AF9, single point; 0.47% of 350,000 active; inhibition, % at 10 µM; AID 651704, 2012;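 active = every replicate reaching a set inhibition limit, whatever the replicate mean, cut at about 25% in these data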;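 also: 0% = plate neutral control median and 100% = total signal loss; the record names both 10 and 1 µM as test concentration; the first replicate is given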
Target sequence (P42568 whole entry, looked up): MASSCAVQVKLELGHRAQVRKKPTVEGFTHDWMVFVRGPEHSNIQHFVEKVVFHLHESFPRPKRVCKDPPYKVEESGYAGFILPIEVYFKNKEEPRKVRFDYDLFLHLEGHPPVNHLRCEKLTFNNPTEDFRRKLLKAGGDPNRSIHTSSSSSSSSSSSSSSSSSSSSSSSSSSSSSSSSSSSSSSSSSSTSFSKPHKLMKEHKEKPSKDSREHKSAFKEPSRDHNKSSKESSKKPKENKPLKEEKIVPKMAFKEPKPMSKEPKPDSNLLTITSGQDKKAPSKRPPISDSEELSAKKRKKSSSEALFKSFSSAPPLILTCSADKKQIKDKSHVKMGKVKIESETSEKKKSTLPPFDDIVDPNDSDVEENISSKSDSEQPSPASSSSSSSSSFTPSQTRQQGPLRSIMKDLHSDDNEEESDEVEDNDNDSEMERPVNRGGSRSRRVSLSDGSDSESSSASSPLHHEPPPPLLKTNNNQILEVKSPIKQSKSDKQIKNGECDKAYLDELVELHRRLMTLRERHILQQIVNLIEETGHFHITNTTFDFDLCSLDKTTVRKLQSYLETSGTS
rRNA inh HTS OD600 – second read-out of rRNA inh HTS, no call of its own (marks repeat the call); OD600 change, %; measured here: OD600 growth;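 optical density of the mix in the first replicate; 0 = DMSO median and -100 = no signal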
rRNA inh HTS RFP – recorded beside rRNA inh HTS, whose call it bears; RFP signal change, %; measured here: RFP humanized mutant strains;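 first replicate; 0 = DMSO median and -100 = no signal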
* marks the source's active call; other numbers are inactive results.

SMILES	rRNA inh HTS	rRNA inh HTS OD600	rRNA inh HTS RFP	AF4-AF9 inh
Cc1ccc(S(=O)(=O)Nc2ccc3c(c2)C(=O)N([C@H](C)CO)C[C@H](C)[C@@H](CN(C)Cc2ccc(C(=O)Nc4ccccc4N)cc2)O3)cc1	-6.5	-14.2	-2.3	0.8
COC(=O)c1cc2c(c3c4cc(F)ccc4n(S(=O)(=O)c4ccc(OC)cc4)c13)C(=O)N(Cc1ccccc1OC)C2	9.0	16.0	13.5	0.8
COc1ccc2c3c(n(C)c2c1)[C@@H](CO)N(C(=O)c1ccccc1)CC31CN(C(=O)c2ccccc2)C1	-3.8	-11.9	3.9	-0.5
CNC(=O)C[C@@H]1CC[C@@H]2[C@H](COc3ccc(NC(=O)c4cccc(OC)c4)cc3C(=O)N2C)O1	3.2	4.1	-3.7	-7.9
COc1ccc(CN(C)C[C@H]2Oc3ccc(NC(=O)Nc4ccc(F)cc4)cc3CC(=O)N([C@@H](C)CO)C[C@@H]2C)cc1	-54.1	-69.3	-12.6	2.2
CC(C)NC(=O)N1C[C@H]2[C@@H](c3ccccc31)[C@H](CO)N2Cc1ccc(Cl)cc1	-4.4	-8.6	-1.3	-1.8
C[C@H]1CN([C@@H](C)CO)S(=O)(=O)c2ccc(C#CCN(C)C)cc2O[C@@H]1CN(C)C(=O)CC1CC1	0.0	10.6	1.1	1.2
C/C=C/c1ccc([C@H]2[C@@H](CO)N(CCC(F)(F)F)[C@@H]2CNC(=O)C2CCC2)cc1	-0.1	-3.0	-0.9	-1.1
C[C@@H]1CN([C@H](C)CO)C(=O)c2cc(C#CCN(C)C)cnc2O[C@@H]1CN(C)C(=O)CN1CCOCC1	0.1	6.7	-2.4	-2.0
O=C(Nc1ccccc1Cl)N1[C@H](CO)[C@@H]2c3ccccc3NC[C@@H]21	-2.7	-8.3	-1.3	-0.8
C[C@@H]1CN([C@@H](C)CO)C(=O)c2c(c3ccccc3n2C)-c2ccccc2CO[C@@H]1CN(C)S(=O)(=O)c1cccc(F)c1	1.4	-0.7	0.9	-0.1
O=C(Nc1ccccc1)N[C@@H]1CC[C@H](CCn2cc(C3(O)CCCC3)nn2)O[C@H]1CO	-1.5	0.4	-1.5	1.1
O=C(C[C@@H]1CC[C@@H]2[C@H](COC[C@@H](O)CN2Cc2cc(F)cc(F)c2)O1)NC1CCC1	-5.0	-5.3	-2.2	-0.8
O=C(N[C@H]1CC[C@@H](CC(=O)N2CCOCC2)O[C@@H]1CO)c1ccccn1	0.6	7.6	-2.0	0.3
C[C@@H]1CN([C@H](C)CO)C(=O)c2cccc(NC(=O)c3nc4ccccc4s3)c2O[C@H]1CN(C)Cc1ccc2c(c1)OCO2	-9.6	-11.8	3.5	3.6
CC(C)NC(=O)Nc1ccc2c(c1)CC(=O)N([C@@H](C)CO)C[C@@H](C)[C@@H](CN(C)C)O2	1.9	10.3	0.8	-1.8
CCCC(=O)N1CC2(CCN(C(=O)Nc3cccc(F)c3)CC2)c2c(n(C)c3cc(OC)ccc23)[C@H]1CO	-3.6	-20.1	0.5	1.7
O=C(CC(F)(F)F)N1C[C@@H]2[C@H](c3ccccc31)[C@H](CO)N2C(=O)C1CCOCC1	3.4	14.2	-0.8	0.3
C[C@@H]1CN([C@@H](C)CO)C(=O)c2cc(C#CCc3ccccc3)cnc2O[C@H]1CN(C)Cc1cccc(F)c1	-34.6	-34.8	-5.9	6.9
COc1ccc(CNC(=O)C[C@H]2C[C@@H]3c4cc(N(C)C)ccc4O[C@@H]3[C@@H](CO)O2)cc1	-1.3	-3.4	0.6	-0.3

4 entries from above in another layout.
O=C(Nc1ccccc1)N[C@@H]1CC[C@H](CCn2cc(C3(O)CCCC3)nn2)O[C@H]1CO
- rRNA inh HTS: -1.5
- rRNA inh HTS OD600: 0.4
- rRNA inh HTS RFP: -1.5
- AF4-AF9 inh: 1.1

O=C(C[C@@H]1CC[C@@H]2[C@H](COC[C@@H](O)CN2Cc2cc(F)cc(F)c2)O1)NC1CCC1
- rRNA inh HTS: -5.0
- rRNA inh HTS OD600: -5.3
- rRNA inh HTS RFP: -2.2
- AF4-AF9 inh: -0.8

O=C(N[C@H]1CC[C@@H](CC(=O)N2CCOCC2)O[C@@H]1CO)c1ccccn1
- rRNA inh HTS: 0.6
- rRNA inh HTS OD600: 7.6
- rRNA inh HTS RFP: -2.0
- AF4-AF9 inh: 0.3

C[C@@H]1CN([C@H](C)CO)C(=O)c2cccc(NC(=O)c3nc4ccccc4s3)c2O[C@H]1CN(C)Cc1ccc2c(c1)OCO2
- rRNA inh HTS: -9.6
- rRNA inh HTS OD600: -11.8
- rRNA inh HTS RFP: 3.5
- AF4-AF9 inh: 3.6

Next part
SMILES	rRNA inh HTS	rRNA inh HTS OD600	rRNA inh HTS RFP	AF4-AF9 inh
C[C@H](CO)N1C[C@H](C)[C@H](CN(C)S(=O)(=O)c2ccccc2)Oc2ccc(NC(=O)Cc3cn(C)c4ccccc34)cc2CC1=O	1.9	-3.3	1.5	-0.8
C[C@@H]1CCCCO[C@H](CN(C)C(=O)Nc2ccc(C(F)(F)F)cc2)[C@@H](C)CN([C@H](C)CO)C(=O)c2cc(NC(=O)C3CCCCC3)ccc2O1	3.4	-1.5	1.5	0.8
O=C(Nc1ccc(Cl)cc1)N[C@@H]1CC[C@@H](CCn2cc(-c3ccccc3F)nn2)O[C@H]1CO	-1.0	-5.1	3.2	-2.0
COc1ccc(NC(=O)Nc2ccc3c(c2)OC[C@@H](C)NC[C@H](C)[C@H](OC)CN(C)C3=O)cc1	3.4	8.2	2.1	3.3
C/C=C/c1ccc([C@@H]2[C@@H](CN(C)C(=O)CN(C)C)N(C(C)=O)[C@H]2CO)cc1	3.5	6.2	-2.0	1.1
COc1ccc(-c2cn(CC[C@@H]3CC[C@H](NC(=O)Nc4ccc(F)cc4)[C@@H](CO)O3)nn2)cc1	-1.0	-4.3	-0.3	-3.4
COCC(=O)N(C)C[C@H]1Oc2cc(C#Cc3cccnc3)ccc2S(=O)(=O)N([C@H](C)CO)C[C@@H]1C	2.7	7.4	-3.6	-1.7
O=S(=O)(Cc1ccccc1)NCC[C@@H]1CC[C@H](NS(=O)(=O)c2ccccc2)[C@@H](CO)O1	0.2	4.3	2.0	0.0
CC(=O)NCCNc1nc(NC(C)C)nc2ccsc12	12.4	25.8	8.4	-4.3
C[C@H]1CN([C@@H](C)CO)C(=O)c2cccc(NC(=O)c3cnccn3)c2O[C@@H]1CN(C)CC1CC1	-1.5	7.2	-0.5	-1.7
COc1ccc(CN(C)C[C@H]2OCc3cn(nn3)CCCC(=O)N([C@H](C)CO)C[C@H]2C)cc1	3.6	7.8	-0.2	-16.7
CC(C)NC(=O)C1(C)CSCC(=O)N1Cc1cccc(C(F)(F)F)c1 (configuration not stated)	12.3	10.2	2.1	0.0
CCOC(=O)C1(C)CCCN1C(=O)c1cccs1 (configuration not stated)	11.9	1.3	-1.8	-3.1
O=C(c1ccccc1)N1[C@H](CO)[C@@H](c2ccccc2)C12CN(Cc1nccs1)C2	-3.0	12.0	1.8	2.0
CCN1[C@@H]2c3ccc(/C=C/c4ccccc4)c(=O)n3C[C@@H]2[C@@H](CO)[C@@H]1C(=O)Nc1nccs1	-5.3	-5.7	1.4	-0.4
COc1ccc(-c2cnc3c(c2)C(=O)N([C@H](C)CO)C[C@H](C)[C@H](CN(C)C(=O)Nc2ccc(F)cc2)O3)cc1	2.3	16.2	-1.1	0.6
C[C@@H]1CN([C@H](C)CO)C(=O)c2cccc(NC(=O)c3cnccn3)c2O[C@@H]1CN(C)Cc1ccc(Cl)c(Cl)c1	-5.8	-14.9	6.2	6.2
Cc1cc(C(=O)Nc2cccc3c2O[C@@H](CN(C)Cc2ccc(C(=O)Nc4ccccc4N)cc2)[C@@H](C)CN([C@H](C)CO)C3=O)n(C)n1	-2.0	3.6	0.2	2.7
C[C@@H]1CCCCO[C@H](CN(C)C)[C@H](C)CN([C@H](C)CO)C(=O)c2cc(NS(=O)(=O)c3ccccc3)ccc2O1	0.3	-1.3	-2.7	-1.7
C[C@H]1CCCCO[C@@H](CN(C)Cc2ccc(C(F)(F)F)cc2)[C@@H](C)CN([C@@H](C)CO)C(=O)c2cc(NS(=O)(=O)c3ccccc3)ccc2O1	-1.9	-18.2	8.1	1.7
Fc1ccc(-c2nc3ccc(Br)cn3c2Cc2ccsc2)cc1	-39.2	-69.4	-7.0	3.1
O=C(Cc1ccncc1)Nc1ccc2c(c1)[C@@H]1C[C@@H](CC(=O)NC3CCCC3)O[C@H](CO)[C@@H]1O2	0.1	-6.6	1.6	0.6
C[C@H](CO)N1C[C@H](C)[C@H](CN(C)C)Oc2ccc(NS(=O)(=O)c3cccs3)cc2CC1=O	3.9	11.4	-1.3	-5.7
CO[C@H](CN(C)C(=O)c1ccccc1F)[C@H](C)CN([C@H](C)CO)S(=O)(=O)c1ccc(C)cc1	-2.6	-1.2	-4.4	0.2
CN1C(=O)c2cc(NC(=O)c3ccc(C(F)(F)F)cc3)ccc2OC[C@@H]2O[C@H](CC(=O)NCc3ccc4c(c3)OCO4)CC[C@H]21	-0.4	-10.9	0.5	-0.3
COc1cccc(-c2ccc3c(c2)[C@H]2[C@H](CCN2C(=O)Cc2ccncc2)[C@H](CO)N3C)c1	1.4	-6.2	1.6	0.0
COC(=O)[C@]12C[C@H](CC(=O)NCCCCc3ccccc3)C(=O)N(Cc3ccc4c(c3)OCO4)C1=C[C@H](C(C)(C)C)O[C@@H]2C	12.7	16.0	3.5	4.1
COc1ccc(S(=O)(=O)N(C)C[C@@H]2Oc3ccc(NC(=O)CCN4CCOCC4)cc3C(=O)N([C@H](C)CO)C[C@@H]2C)cc1	0.6	5.5	-0.6	-2.0
COc1ccc(-c2cc3c(c4c2ccn4C)C2CCC3C2)cc1 (configuration not stated)	-7.7	11.9	12.8	4.8
CC(C)NC(=O)Nc1ccc2c(c1)C(=O)N([C@@H](C)CO)C[C@@H](C)[C@H](CN(C)Cc1ccncc1)O2	4.3	-5.0	-1.9	-2.5
C[C@H](CO)N1C[C@H](C)[C@@H](CN(C)CC2CCCCC2)OCCCC[C@H](C)Oc2ccc(NC(=O)Nc3ccc4c(c3)OCO4)cc2C1=O	-4.8	0.2	-4.9	-13.5
CCCNC(=O)[C@H]1[C@H](CO)[C@H]2Cn3c(ccc(-c4ccccc4F)c3=O)[C@@H]1N2S(C)(=O)=O	-2.4	-4.2	0.4	-10.5
O=C(CCN1CCCCC1)NCC[C@H]1CC[C@@H](NC(=O)c2ccc(F)cc2)[C@@H](CO)O1	4.2	11.4	0.7	-3.8
Cc1noc(C)c1S(=O)(=O)Nc1ccc2c(c1)C(=O)N([C@H](C)CO)C[C@H](C)[C@@H](CN(C)S(C)(=O)=O)OCCCC[C@H](C)O2	-0.2	4.0	0.1	-2.5
C[C@@H]1CN([C@H](C)CO)C(=O)Cc2cc(NS(=O)(=O)c3ccc(Cl)cc3)ccc2O[C@@H]1CN(C)C(=O)NC1CCCCC1	-2.6	-6.5	-0.2	-0.7
C[C@@H]1CN([C@H](C)CO)C(=O)c2cc(C#CC3(O)CCCC3)cnc2O[C@H]1CN(C)S(=O)(=O)c1ccccc1	-0.7	1.9	3.4	-3.0
COc1cc(OC)cc(C2=Cc3ccccc3C(CC(C)=O)N2c2ccc(-c3cncnc3)cc2)c1 (configuration not stated)	1.5	-2.1	6.8	2.0
COC(=O)[C@@]12C[C@@H](CC(=O)NCCCCc3ccccc3)C(=O)N(Cc3ccco3)C1=CCC(C)(C)C2	-2.3	-14.9	5.2	-1.4
Cc1ccc(S(=O)(=O)Nc2ccc3c(c2)C(=O)N([C@@H](C)CO)C[C@H](C)[C@H](CN(C)Cc2ccc4c(c2)OCO4)O3)cc1	4.0	0.3	-1.7	0.6
O=C(CC1CC1)Nc1ccc2c(c1)[C@H]1C[C@@H](CC(=O)N3CCc4ccccc4C3)O[C@@H](CO)[C@H]1O2	-6.2	-12.1	-3.1	1.7
CN1C(=O)c2cc(NS(=O)(=O)c3ccccc3F)ccc2OC[C@H]2O[C@H](CC(=O)NC3Cc4ccccc4C3)CC[C@@H]21	-2.0	-6.4	-2.9	2.4
Cc1cccnc1C(NC(=O)C1CCN(CCCc2ccccc2)CC1)c1ccc(F)cc1 (configuration not stated)	11.4	7.2	5.8	5.4
C[C@H](CO)N1C[C@H](C)[C@@H](CN(C)C(=O)CN(C)C)Oc2cc(-c3ccccc3)ccc2S1(=O)=O	1.6	4.2	-0.2	3.7
CC=Cc1ccc2n(c1=O)C[C@@H]1[C@@H](CO)[C@H](C(=O)NC3CCC3)[C@H]2N1S(=O)(=O)c1cn(C)cn1 (mixture of isomers)	2.5	9.6	-1.6	1.5
O=C(c1cnccn1)N1CC(=O)N2[C@H](CO)[C@@H](c3ccc(-c4ccccc4)cc3)[C@@H]2C1	-2.5	-14.7	-0.7	-2.7
O=C(Nc1cc(F)ccc1F)N1CC(=O)N2[C@H](CO)[C@@H](c3ccc(-c4cccc(F)c4)cc3)[C@@H]2C1	-20.6	-56.5	23.6	0.8
CC(C)(C)[C@H](NC(=O)c1ccc(N)c(Cl)c1)C(=O)N1CCC[C@H]1C(=O)N[C@H](C#N)CC(=O)O	19.5	19.2	0.8	-2.3
COc1cccc(C(O)c2nc(-c3cccc(NC(C)=O)c3)cs2)c1 (configuration not stated)	0.4	-4.0	5.1	3.1
O=C1CN(S(=O)(=O)Cc2ccccc2)C[C@H]2[C@@H](c3ccc(C#Cc4ccccc4)cc3)[C@H](CO)N12	0.3	-3.9	7.9	-1.6

Source: PubChem (Broad Institute)

Only part of the results is shown (hit frequency here may not be typical).
